ClpP mod = qHTS Assay for Activators of ClpP; ATP-dependent Clp protease proteolytic subunit (Bacillus subtilis (strain 168)), P80244; Potency, µM (highest dose often 57.5 µM), inactives show top-dose activity change, negative = active; purified B. subtilis ClpP, FRET peptide cleavage, 20 min; AID 651965, 2013; 1.9% of 340,000 active; active = well fitted falling curve with a large enough effect; inconclusive = small, poorly fitted or top-dose-only effect; inactive = no such curve, though single readings can be large or run the other way; also: potency is read from the fitted curve at half-maximal effect; the source files actives as falling curves though it sought activators and does not explain the sign; nearly all actives have a fitted effect of over 65% in size; many hits overshoot -100%
Target sequence (P80244 whole entry, looked up): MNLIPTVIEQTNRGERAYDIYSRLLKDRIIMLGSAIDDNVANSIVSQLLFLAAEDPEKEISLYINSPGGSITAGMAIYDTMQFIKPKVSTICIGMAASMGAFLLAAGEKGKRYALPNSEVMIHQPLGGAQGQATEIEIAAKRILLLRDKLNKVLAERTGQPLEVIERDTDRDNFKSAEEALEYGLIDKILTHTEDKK
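ClpP 10 microg/mL final, pH 8 Tris/KCl buffer with BSA, glycerol, Tween-20; compound pinned in; FRET-FV substrate; RT 20 min; Ex320/Em430; ΔFRET vs ADEP 5.8 microM, DMSO, no enzyme.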
D2 ag = human D2 receptor agonism in beta-arrestin assay. P14416. DiscoveRx PathHunter D2 beta-arrestin, luminescence, 90 min; 100% = 57 uM dopamine signal. activation, % (no concentration beside the values). 0.084% of 360,000 active; in the data active = activation above about 40%; inconclusive = about 15% to 40%; inactive = below about 15%; also: compound concentration not given in the record; the text of the record calls up to 30% inactive
Target sequence (P14416 whole entry, looked up): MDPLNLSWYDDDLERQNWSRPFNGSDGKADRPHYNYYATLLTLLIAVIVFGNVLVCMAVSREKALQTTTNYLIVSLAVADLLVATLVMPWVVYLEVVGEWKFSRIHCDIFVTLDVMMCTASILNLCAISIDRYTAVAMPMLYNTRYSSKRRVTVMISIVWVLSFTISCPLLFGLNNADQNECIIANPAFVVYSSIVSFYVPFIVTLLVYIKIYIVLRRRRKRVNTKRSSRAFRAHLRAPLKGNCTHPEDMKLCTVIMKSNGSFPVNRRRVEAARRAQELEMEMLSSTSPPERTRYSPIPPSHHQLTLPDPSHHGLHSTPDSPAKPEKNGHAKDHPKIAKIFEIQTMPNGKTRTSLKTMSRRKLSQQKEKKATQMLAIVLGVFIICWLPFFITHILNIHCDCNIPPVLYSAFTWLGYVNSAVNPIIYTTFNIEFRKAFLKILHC
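Agonist mode: compounds alone added to overnight-plated D2 PathHunter cells for 90 min at 37 C, with 57 uM final dopamine (EC100) defining full response. Beta-arrestin recruitment detected by chemiluminescent reagent, read after 1 h at ambient temperature.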
gsp agonist = gsp mutant agonism; 0.13% of 340,000 active; gsp mutant cells, cAMP HTRF, 30 min; control for the full effect not named in the record; AID 624287; Potency, µM (series often up to 76.9 µM), inactives show at the top dose activation (cAMP increase), actives largely listed as activators; active = well fitted activation curve with a large enough effect; inconclusive = small, poorly fitted or top-dose-only effect, or another doubt; inactive = no such curve, though single readings can be large or run the other way; cell line not stated here;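 also: phosphodiesterase inhibitor Ro 20-1724 added with compounds to block cAMP breakdown; potency is read from the fitted curve at half-maximal effect; nearly all actives have a fitted effect of over 60% in size; about a fifth of the inactives were tested at one dose only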
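Cells in DMEM/10% FBS with G418 were pretreated with compounds in DMSO plus […] (300 uM stock) for 30 min at 37C. cAMP was measured by HTRF (cAMP-d2 plus anti-cAMP antibody-K) after 30 min at room temperature.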
PINK1 expr mod = modulators of PINK1 expression; PINK1 immunofluorescence, high-content cytometry, 24 h; Potency, µM (series often up to 76.6 µM), for the others: at the top dose activation (PINK1 increase), usual class: activators; 0.2% of 410,000 active; AID 624263; active = well fitted activation curve with a large enough effect; inconclusive = small, poorly fitted or top-dose-only effect; inactive = flat fitted curve, though single readings scatter; cell line not stated here;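 also: potency is read from the fitted curve at half-maximal effect; % of control where 0% means no effect; nearly all actives have a fitted effect of over 65% in size; a mitochondrial uncoupler was the plate control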
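Cells are seeded, rested 12 hours, then given compound at five concentrations or DMSO for 24 hours. After fixation, blocking and antibody staining, PINK1 amount and mitochondrial localization are scored; CCCP serves as control.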
gsp antagonist = gsp mutant antagonism; 0.4% of 340,000 active; Potency, µM (titrated, usually from 76.9 µM), without a hit: top-dose activity change, negative = inhibition, actives largely listed as inhibitors; gsp-mutant cells, cAMP HTRF, 30 min; control for the full effect not named in the record; active = falling curve of any shape with a large fitted effect; inconclusive = falling curve, mostly with a smaller effect; inactive = flat or rising curve; cell line not stated here;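 also: intracellular cAMP measured with PDE inhibitor Ro 20-1724 present during compound exposure; potency is read from the fitted curve at half-maximal effect; % is scaled to controls: 0 for no effect and ±100 for the full control effect; nearly all actives have a fitted effect of over 65% in size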
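Measurement of cellular cAMP by homogeneous time-resolved fluorescence following a 30 min compound exposure at 37C. The PDE inhibitor […] was present throughout; the assay buffer was DPBS with 0.05% BSA and 0.005% Tween 20.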
Sfp PPTase inh = blocks B. subtilis Sfp PPTase activity; 3.5% of 310,000 active; Biochemical Sfp PPTase activity, qHTS; Q9F4F7; Potency, µM, inactives show max response, negative = inhibition, most hits filed as inhibitors; active = well fitted inhibition curve with a large enough effect; inconclusive = small, poorly fitted or top-dose-only effect, or another doubt; inactive = no such curve, though single readings can be large or run the other way;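 also: the enzyme is Sfp with the accession as filed and its product quenches rhodamine fluorescence; potency is read from the fitted curve at half-maximal effect; 0% = enzyme reaction without inhibitor and -100% = no enzyme wells; top concentration of the series not given in the record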
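Sfp 15 nM + cpd, 15 min RT; start w/ rhodamine-CoA 5 uM, BHQ-2-YbbR 12.5 uM (final); 50 mM Hepes pH 7.6, 10 mM MgCl2, 0.01% NP-40, 0.01% BSA; read 525/598 nm at 0 and 30 min.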
Menin MLL FP FL = displaces fluorescein MLL peptide from human menin; Fluorescence polarization, fluorescein-MLL peptide displacement from menin; 290,000 tested, under 10 active; FP activity change, % at 61.4 µM; inconclusive = falling polarisation curve, or a change in total fluorescence; inactive = total fluorescence flat and polarisation flat or rising; no compound was filed as active; the % refers to the polarisation; negative = inhibition;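 also: % of control where 0% means no effect; inhibitors lower the polarisation; unlabelled MLL peptide was the positive control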
* = called active by the depositor; ? = inconclusive; nt = not tested or not shown; [ ] = another dose, or the depositor's remark.

SMILES	ClpP mod	D2 ag	gsp agonist	PINK1 expr mod	gsp antagonist	Sfp PPTase inh	Menin MLL FP FL
Cc1cc2c(=O)n(C)c(SCC(=O)Nc3cccc(F)c3)nc2s1	nt	-2.3	18%	13%	-22%	1%	-1.8
CS(=O)(=O)Nc1ccc(C(=O)NCCSC2CCCCC2)cc1	-2.7%	-1.2	4%	-4.3%[38.3 µM]	-2%	6%	4.2
CC(=C1C(=O)c2ccccc2C1=O)N1CCN(c2ccccn2)CC1	?	14	2%	0.7%	-4%	-29%	4.5
O=C1CC(c2cccc(Cl)c2)CC(O)=C1C=NCCCO (stereo unspecified)	0.2%	-4.7	-7%	-1.3%	-2%	9%	4.5
CCCCSc1ncc(C(=O)OCC)c(N)n1	-1.1%	-2.3	-7%	1.9%	8%	12%	-2.0
Cc1nn(-c2cccc(Cl)c2)c(Cl)c1/C=N/NC(=O)c1cccnc1	1.0%	8.3	-6%	3.6%	-24%	-5%	0.0
COC(=O)Cc1ccc(NC(=S)NC(C)(C)C)cc1	nt	-6.1	3%[15.4 µM]	0.1%	nt	1%	-0.3
O=C(O)c1cccc2sc3cc(Cl)ccc3c(=O)c12	3.6%	-4.7	10%	-0.8%	-5%	nt	nt
C(=N\Nc1nc(-c2ccccc2)cs1)/c1cccs1	-0.4%	13	-33%[inhibitor]	-2.4%	-5%	8.9µM*	0.2
COc1ccc(O)c(C2=Nc3ccccc3N=C(c3ccco3)C2)c1	-18%	3.4	-5%	8.0%	-1%	1%	2.3
CC(NC(=O)C1CCCCC1)c1ccc2c(c1)OCCO2 (stereo unspecified)	1.4%	0.0	-1%	3.2%	-10%	4%	-2.1
COc1ccc(Cc2noc(CN3CCNC(=O)CC3)n2)cc1OC	nt	-5.2	-2%[15.4 µM]	0.4%	3%	18%	0.1
CCn1c(C)c(C)c2cc(C(=O)Nc3cccc(Cl)c3)ccc21	?	-1.2	-12%	4.6%	-9%	21%	5.4
CCOc1ccccc1NC(=O)COC(=O)c1cccc(-c2ccc(OC(C)=O)cc2)c1	-5.7%	-2.1	3%	5.0%	-2%	-4%	-2.1
O=C(CC1C(=O)NCCN1C(=O)c1ccc(F)cc1)OCc1ccccc1 (stereo unspecified)	0.6%	-3.4	-16%	0.9%	-6%	14%	-1.2
Cc1ccc(S(=O)(=O)CCC(=O)NCc2ccccc2)cc1	0.1%	-1.4	27%[15.4 µM]	1.3%	-4%	1%	5.6
NC(=O)c1ccc(NC(=O)COC(=O)c2ccc(Cl)nc2)cc1	-5.3%	9.8	-25%	0.0%	6%	nt	nt
COc1ccc(CCNS(=O)(=O)c2cccs2)cc1	0.5%	-2.1	4%	-2.6%	-6%	-16%	3.7
CC1CN(C(=S)SCCN2Cc3ccccc3C2=O)CC(C)O1 (stereo unspecified)	-2.4%	-6.9	-5%[15.4 µM]	1.7%	3%	0%	-1.2
COc1ccc(CNC(=O)CN2CCC(C(=O)c3ccc(OC)cc3)CC2)cc1	1.1%	-0.5	9%	-1.3%[38.3 µM]	?	9%	1.5
CC1CC(C)(C)CC2(C1)NC(=O)N(CC(=O)N(C)Cc1nc3ccccc3c(=O)[nH]1)C2=O (stereo unspecified)	0.8%	-4.4	-6%[15.4 µM]	-0.1%	9%	nt	nt
O=C(c1ccccc1)c1ccc(C(=O)N2CCN(c3ccccc3O)CC2)cc1	-2.0%	?	?	-1.1%	nt	nt	nt
CC1=CC(C)(C)N2C(=O)C3(C(C#N)=C(N)Oc4cc(O)ccc43)c3c(C)c(C)cc1c32 (stereo unspecified)	0.2%	1.3	-4%	-0.2%[38.3 µM]	-13%	7%	2.1
Cc1ccc(CNS(=O)(=O)c2ccc(-n3cnnn3)c(C)c2)cc1	nt	-3.5	1%	-1.9%	1%	12%	-0.8
c1ccc2sc(NC3=NCN(CCN4CCOCC4)CN3)nc2c1	nt	1.0	-1%[15.4 µM]	2.3%	nt	1%	-4.1
SMILES	ClpP mod	D2 ag	gsp agonist	PINK1 expr mod	gsp antagonist	Sfp PPTase inh	Menin MLL FP FL
CCC(c1nnc(SCC(=O)Nc2cc(C)on2)o1)N(C)C (stereo unspecified)	0.3%	2.0	0%	-0.1%	15%	nt	nt
CC(=O)Nc1ccc(S(=O)(=O)Nc2ccccc2N2CCOCC2)cc1	-1.7%	-2.1	28%	-0.1%	2%	nt	nt
Fc1ccc(N/N=C(/c2ccccc2)c2ccccn2)cc1	0.1%	-2.5	0%[15.4 µM]	6.2%	0%	?	-2.1
COc1ccc(C(=O)c2cc3c(cc2[N+](=O)[O-])OCCO3)cc1	nt	-3.4	-2%[15.4 µM]	0.5%	-9%	0%	0.9
COc1ccc(C(=O)NC(C)c2nnc(SCC(=O)Nc3nc(C)cs3)n2C)cc1 (stereo unspecified)	0.9%	3.1	-30%	-3.0%[38.3 µM]	1%	4%	0.5
O=C(N/N=C/c1cccs1)c1ccc2ncccc2c1	-3.5%	-3.3	6%	6.0%	-8%	15%	0.4
O=C(CC(CC(=O)c1ccccc1)c1ccccn1)c1ccccc1	nt	-0.9	-41%[inhibitor]	2.5%	-11%	nt	nt
COc1cccc(NC(=O)C2CC(=O)N(Cc3ccco3)C2)c1 (stereo unspecified)	1.0%	-5.6	-7%	0.0%	-2%	nt	nt
NNc1nc(-c2ccccc2)cc(-c2ccccc2)n1	-0.4%	-14	-35%	-1.4%	?	?	-2.3
CCOc1ccc(Nc2nnc(Cc3ccc(OC)cc3)c(=O)[nH]2)cc1	nt	-3.1	-9%[15.4 µM]	0.0%	14%	4%	1.7
C/C(=N\Nc1ccc(C#N)cc1[N+](=O)[O-])c1ccc(C)o1	nt	-5.7	3%[15.4 µM]	-1.6%	5%	4%	-1.1
O=C(C1=C(O)C(=O)N(CCN2CCOCC2)C1c1ccc(Br)cc1)c1cc2ccccc2o1 (stereo unspecified)	-7.4%	-3.2	?	-0.7%	0%	7%	nt
O=c1cc(O)c(-c2cccc(Cl)c2)c(Cl)[nH]1	1.8%	-4.1	-10%	0.8%	-3%	6%	-1.9
COC(=O)c1c(C#N)c(N)nc2c1CCCC2	28µM*	1.2	18%	-0.7%	21%	-6%	-1.7
CNC(=S)Nc1cc(C(F)(F)F)ccc1Cl	1.0%	-3.5	?	-0.5%	-3%	26%	6.2
Cn1c(=NC(=O)CSCC(=O)N2CCOCC2)sc2ccccc21	-4.1%	-4.6	-3%	-0.3%	1%	2%	0.8
CC(C)CCOCC(=O)Oc1ccccc1C(=O)O	28µM*	-0.7	?	-0.7%	7%	25%	-0.4
CCN1CCN(S(=O)(=O)c2ccc(C(=O)Nc3ccccc3)cc2)CC1	3.1%	-2.3	6%[15.4 µM]	-1.9%	-3%	20%	0.3
C[C@@H](NC(=O)c1ncn2c1c(=O)[nH]c1cccnc12)c1ccccc1	4.1%	-3.5	-31%[inhibitor]	-1.8%	nt	nt	nt
COc1ccc(CCNC(=O)CCOc2ccc(C)cc2)cc1OC	-0.2%	-3.5	2%	0.9%	1%	8%	nt
Cn1ccnc1C(O)(c1ccccc1)c1nccn1C	nt	-0.1	-33%[inhibitor]	0.7%	11%	-6%	-0.9
Cc1ccc(CNC(=O)c2nnc(CS(=O)(=O)c3ccccc3)o2)cc1	-0.3%	0.9	-64%[inhibitor]	0.7%	4%	8%	4.9
CC(C)CCNC(=O)CSc1nc2ccccc2c(=O)[nH]1	-7.5%	-1.9	13%	0.6%[38.3 µM]	7%	22%	-0.5
COc1cccc(NC(=O)CC2C(=O)NCCN2C(=S)Nc2ccc(F)cc2)c1 (stereo unspecified)	nt	-0.6	13%[15.4 µM]	1.2%	-10%	15%	0.6
CCC(CC)c1nnc(NC(=O)c2ccc(N3CCCCC3)c([N+](=O)[O-])c2)s1	nt	-1.3	-6%[15.4 µM]	8.4%	-5%	11%	4.7
SMILES	ClpP mod	D2 ag	gsp agonist	PINK1 expr mod	gsp antagonist	Sfp PPTase inh	Menin MLL FP FL
CCOc1ccccc1-c1nc(SCC(=O)O)n[nH]1	-4.8%	-0.4	17%	1.7%	7%	0%	3.7
Cc1c(OCC(=O)N(C)C)ccc2c3c(c(=O)oc12)CCCCC3	3.6%	2.7	17%	0.3%	?	-17%	-1.8
O=c1c(-c2ccc(Cl)cc2)nc2cnc(N3CCNCC3)nc2n1Cc1ccc(F)cc1	nt	nt	nt	-0.3%	nt	45µM*	-1.7
O=Cc1sc([O-])nc1-[n+]1ccc2ccccc2c1	0.5%	1.4	9%[15.4 µM]	-0.5%	8%	13%	?
COc1ccc(NC(=O)CCCNC(=O)c2ccc(Cl)cc2)c(OC)c1	nt	-0.4	1%[15.4 µM]	-1.5%	1%	10%	1.1
COc1ccccc1NC(=O)c1cnc2c(-c3ccccc3)c(C)nn2c1C	nt	-1.0	-7%[15.4 µM]	1.4%	-28%	-16%	6.5
O=S1(=O)CCN(Cc2ccc(Cl)c(C(F)(F)F)c2)CC1	nt	0.2	0%[15.4 µM]	-0.6%	8%	-7%	1.1
COc1ccc(/C(N)=N/OC(=O)CSc2ccc(C)cc2)cc1	-1.6%	2.9	35%	19%[38.3 µM]	-17%	2%	-3.4
CC(=O)c1cccc(NC(=O)C2CC(=O)N(c3cccc(C)c3C)C2)c1 (stereo unspecified)	-4.0%	-3.0	7%	0.7%[38.3 µM]	-7%	10%	-1.5
CC(C)Cn1c(CCCNC(=O)c2ccc(F)cc2)nc2ccccc21	0.9%	-2.3	-5%	2.5%	-10%	-1%	50[activator]
CCOC(=O)C1CCN(c2c(N3CCCC(C(=O)OCC)C3)c(=O)c2=O)CC1 (stereo unspecified)	-2.4%	-3.0	-1%	0.6%	-18%	16%	1.7
COc1cc(/C=N/OCC(=O)NC2CCCCC2C)ccc1OCc1ccc(Cl)cc1 (stereo unspecified)	15%	7.7	-4%[15.4 µM]	-1.4%	-26%	-6%	6.2
CC(CCc1ccccc1)NCC#N (stereo unspecified)	0.7%	8.3	?	0.8%	11%	13%	4.1
Cc1cc2c(c(=O)o1)C(CC(C)C)C(C#N)=C(N)O2 (stereo unspecified)	-2.0%	-1.0	-2%	-0.4%	0%	-12%	?
